Choline anaer gr: inhibitors of anaerobic choline-dependent gram-negative bacterial growth. calls only. Gram-negative bacterium anaerobic choline minimal medium, absorbance growth; hits give low values; many inactives read as strong as hits in the columns shown. AID 1963822. 55,000 compounds, 0.2% hits;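 active = growth z-score on choline under -2 at 7 or 20 h with little or no fall on glycerol, limits in tiers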;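 also: stock transfer was 300 nL into about 50 µL; the organism is E. coli; final concentration not given here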
Choline anaer gr early: further read-out of Choline anaer gr, marked with its call; z-score; measured here: choline growth z-score, timepoint 1;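 score of optical density at 7 h as mean of two plates; lower means less growth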
An asterisk follows results filed as active; i = inactive; & = joins results of further samples.

SMILES	Choline anaer gr	Choline anaer gr early
COC(=O)c1ncn2c1C(=O)N(Cc1ccc(N(C)C)cc1)C(C)(C(=O)NC1CCCCC1)C2 (stereo unspecified)	i	0.87
O=C(C1CCN(c2cncnc2N2CCCCC2)CC1)N1CCC2(CC1)OCCO2	i	0.7
CN(CCNC(=O)CCSCc1cnn(-c2ccccc2)c1-n1cccc1)Cc1ccccc1	i	-0.99
CC(C)c1cc(C(=O)N2CCCCC2C)no1 (stereo unspecified)	i	-0.23
CCOc1cccc(-c2noc(-c3nn(-c4ccccc4)ccc3=O)n2)c1	i	0.71
Cc1ccc(CN2CCN(C3CCN(S(=O)(=O)c4cccc5nsnc45)CC3)C(=O)C2=O)cc1	i	-0.05
CC(C)n1cnc2nc(CSc3ccccc3NC(=O)C(C)(C)C)cc(=O)n21	i	0.5
O=C(NC1CCCc2ccccc21)c1ccc(-c2cc(N3CCCC3)ncn2)cc1 (stereo unspecified)	i	0.38
CC(=O)O[C@@H]1C[C@H]2C(C)(C)C(=O)C=C[C@]2(C)[C@H]2CC[C@@]3(C)[C@H](c4ccoc4)OC(=O)[C@H]4O[C@]43[C@@]21C	i	0.27
O=C(CSc1nccnc1N1CCN(c2ccccc2)CC1)N1CCN(c2ccccc2)CC1	i	-0.08
O=C(O)c1csc2nc[nH]c(=O)c12	i	0.57
Cc1c(N(C)C)c(=O)n(-c2ccccc2)n1C	i	-3.51&0.95
O=C(CN1Cc2ccccc2C1=O)Nc1cnc2ccccc2c1	i	-0.89
CCOc1cc(CNCCSc2nnnn2C)cc(Cl)c1OCc1ccccc1Cl	i	0.43
FC(F)(F)c1cc(-c2ccncc2)nc2cc(-c3ccc(Cl)cc3)nn12	i	-0.68
O=C(Nc1cccc(-c2noc(C3CCC3)n2)c1)C1CC(=O)N(c2cccc(Cl)c2)C1 (stereo unspecified)	i	1.77
CCc1ccccc1NC(=O)c1c(C(=O)Nc2ccc(C(=O)OC)cc2)sc2nc(C)cc(=O)n12	i	-0.04
Cc1cc(SCC(=O)N2CCCC2)n2ncc(-c3ccc(F)cc3)c2n1	i	0.36
COc1cccc(Cn2nnc3cc(C(=O)N4CCN(c5ccccn5)CC4)ccc32)c1	i	0.33
CCc1onc(C)c1C1CCCN1Cc1ccc(Br)cc1 (stereo unspecified)	i	-1.39
CCc1ccc(C2CC(=O)Nc3c2c(C)nn3-c2nc3ccc(C)cc3s2)cc1 (stereo unspecified)	i	1.33
CN(Cc1ccccc1)S(=O)(=O)c1ccc2c(c1)NC(=O)CS2	i	0.09
O=C(NCc1nc2cccnc2n1Cc1ccc(F)cc1)C1CC1	i	-1.36
Cc1ccc(C(=O)CN2C(=O)COc3ccccc3C2=O)cc1	i	-1.46
Cc1ccc(CNC(=O)C2CCCN(C(=O)C3Sc4ccccc4NC3=O)C2)cc1 (stereo unspecified)	i	-0.49
Later entries:
SMILES	Choline anaer gr	Choline anaer gr early
CCCn1c(CCc2ccccc2NS(=O)(=O)c2cn(C)c(C)n2)nc2ccccc21	i	0.92
O=c1c2cc3c(cc2nc(SCc2nc(-c4ccc(F)cc4)no2)n1Cc1ccncc1)OCO3	i	0.17
CC1CCN(C(=O)CSc2nnc(Cc3cccn3C)n2-c2ccc(F)cc2)CC1	i	-0.71
Cc1cc2c(cc1S(=O)(=O)CCC(=O)NCCCc1ccccc1)OCC(=O)N2	i	0.02
O=C(CN1c2ccc(F)cc2-c2ccccc2S1(=O)=O)Nc1ccc2c(c1)OCO2	i	0.04
CCc1ccc(N2C(=O)N(CC(=O)c3ccc(OC)cc3)c3ccccc3S2(=O)=O)cc1	i	0.34
CCCCC(=O)Nc1ccc2nc(SCC(=O)N3CCOCC3)sc2c1	i	-0.62
CCc1cc2c(cc3n2CC(C)(C(=O)NC2CCCCC2)N(CCCN2CCOCC2)C3=O)s1 (stereo unspecified)	i	-0.32
CN1CCc2ccccc2Cc2[nH]c3ccccc3c2CC1	i	-0.26
CC(C)c1ccc(-c2noc(N3CCC(C(=O)NC4CCCCC4)CC3)n2)cc1	i	0.73
CC(C)n1cnnc1C1CCCN(C(=O)c2n[nH]c3c2CCCC3)C1 (stereo unspecified)	i	0.91
CC(C)NC(=O)c1cnn2c3c(cnc12)CCCCCC3	i	0.23
CCN1CCCC1CNC(=O)C1CCN(C2=NS(=O)(=O)C(c3ccc(C(C)C)cc3)=C2C)CC1 (stereo unspecified)	i	-0.24
Cc1cc(Sc2ccccc2NC(=O)Nc2ccc(F)c(Cl)c2)n2ncnc2n1	i	0.13
Cc1cccc(NC(=O)c2[nH]c(C)c(S(=O)(=O)N3CCCC3)c2C)c1C	i	0.48
Cn1nc(CO)c2c1CCN(Cc1ccc(Br)s1)C2	i	0.24
Cc1cccc(C(=O)Nc2ccc3c(c2)NC(=O)CO3)c1	i	-0.69
CC(C)(C)c1cc(C(=O)/C=C/c2ccc(C(=O)O)cc2)cc(C(C)(C)C)c1	i	0.33
CC1(C)CC(=O)C2=C(C1)Nc1ccccc1N(C(=O)CCC(=O)O)C2c1ccccc1 (stereo unspecified)	i	-0.63
CNC(=O)N1CCCC(c2cccc(C(=O)N(C)C)c2)C1 (stereo unspecified)	i	-0.39
CCCC(=O)c1cn(CC(=O)NC(C)c2ccc3c(c2)OCCCO3)c2ccccc12 (stereo unspecified)	i	0.42
O=S(=O)(Cc1ccc(Cl)cc1)N1CCc2cc3ccccc3nc21	i	0.63
CC1CCN(C(=O)c2cc(NS(=O)(=O)c3ccc4c(c3)CCCC4)cnc2N2CCNCC2)CC1	i	0.66
Cc1ccc(-c2noc(-c3cccn(CC(=O)Nc4cccc(F)c4)c3=O)n2)cc1	i	0.42
CCC1c2ccc(C)n2CCN1C(=O)Nc1ccccc1OC (stereo unspecified)	i	0.23
Carrying on.
SMILES	Choline anaer gr	Choline anaer gr early
Cc1ccccc1COc1ccccc1C1CC(=O)Nc2c1c(C)nn2-c1ccc2nncn2n1 (stereo unspecified)	i	0.77
CCN(CC)S(=O)(=O)c1ccc2c(c1)nc(CN(C)C(=O)c1ccc(F)cc1)n2C	i	0.3
Cn1c(N2CCCC(C(=O)N3CCN(c4ccc(Cl)cc4)CC3)C2)cc(=O)n(C)c1=O (stereo unspecified)	i	-0.21
COc1ccc(-c2nc3ccccc3c3nnc(SCC(=O)NC4CC4)n23)cc1	i	-0.94
CCc1ccc(CNS(=O)(=O)c2cc(-c3cnn4c(C)cc(C)nc34)ccc2C)cc1	i	-0.46
COc1cccc(C2CC(=O)Nc3c2c(C)nn3-c2ccc3nncn3n2)c1OCc1ccccc1 (stereo unspecified)	i	-0.38
O=C(NCC(c1ccccc1)c1c[nH]c2ccccc12)c1ccccc1Br (stereo unspecified)	i	1.3
Cc1ccc(-c2onc3ccc(-c4cc(C(=O)O)c5ccccc5n4)cc23)cc1	i	-0.78
COc1cc(OC)c(NC(=O)n2nc(C)c3ccccc32)cc1Cl	i	0.34
COc1ccc(NC(=O)c2nn(C)c(C(F)(F)F)c2Cl)c(C)c1	i	-0.48
Cc1ccc2ncc(NC(=O)c3ccccc3C)c(=O)n2c1	i	0.04
CC(C)NC(=O)CN1CCN(C(=O)c2ccc(N3CCNCC3)c(NS(C)(=O)=O)c2)CC1	i	0.09
CCOC(=O)c1ccc(NC(=O)Cn2c(-c3nnc(C)o3)cc3ccccc32)cc1	i	-0.85
CC(C)NC(=O)N(C)CCc1noc(C(=O)NCc2ccc3c(c2)OCO3)n1	i	0.38
CC(C)Oc1ccc(C(=O)NCCc2csc3nc(-c4cccc(F)c4)nn23)cc1	i	-1.02
O=C(NCc1ccc(Cl)cc1)C1CCN(c2ccc3cc(S(=O)(=O)N4CCCCC4)ccc3n2)CC1	i	1.99
Cn1c(=O)c2c(nc3n(-c4ccccc4N)c(-c4ccc(Cl)cc4)cn23)n(C)c1=O	i	0.41
O=C(Nc1ccc([N+](=O)[O-])cc1Cl)c1cc(Cl)ccc1O	i	0.93&0.77
COc1cccc(NC(=O)CN2C(=O)CSc3ccc(C(=O)N4CCCC4)cc32)c1	i	0.45
CC(C)OCCCn1c(=O)c2cc(Cl)ccc2n2c(SCc3cccc(Cl)c3)nnc12	i	-0.84
O=C(Nc1ccc(-c2nnc(-c3ccccc3)o2)cc1)Nc1ccc(F)cc1F	i	-0.6
Nc1cccc(N2CCn3c(nc4ccccc43)C2)c1	i	-0.08
CCN(CC)S(=O)(=O)c1ccc2c(c1)N(CC(=O)N1CCOCC1)C(=O)CO2	i	-0.7
Cc1ccc(Cn2c3ccccc3c3cnn(CC(=O)NCc4ccccc4Cl)c(=O)c32)cc1	i	0.41
CCCCOc1ccc(NC(=O)c2cc(=O)c3cc(Cl)c(C)cc3o2)c2cccnc12	i	1.28
(more compounds)
SMILES	Choline anaer gr	Choline anaer gr early
Cc1cccc(OCC(=O)Nc2ncn(Cc3ccc(Cl)cc3)n2)c1C	i	-1.34
Cn1c(=O)c(C(=O)N2CC=C(c3ccccc3)CC2)nn(-c2ccc(Cl)cc2)c1=O	i	-0.99
Nc1nc2c(c(=O)[nH]1)C(c1cc(Br)ccc1F)CC(=O)N2 (stereo unspecified)	i	-0.2
O=C(c1cc(=O)nc2sc(N3CCCCC3)nn12)N1CCC(N2CCCCC2)CC1	i	0.16
Oc1ccc(C2NCCc3c2[nH]c2ccc(Cl)cc32)cc1O (stereo unspecified)	i	-0.92
Cc1[nH]c(-c2nnc(C3CC3)o2)c(C)c1S(=O)(=O)N1CCC(C)CC1	i	1.1
COc1ccc2[nH]cc(CCNC(=O)c3ccc(Cl)cc3)c2c1	i	-2.24
COc1ccc(OC)c(CNC(=O)Cn2c(=O)sc3ccccc32)c1	i	-1.33
COCCCNC(=O)N1CCC2(C1)C(=O)N(C)c1ccccc12 (stereo unspecified)	i	-0.47
O=C(CC1CCCCC1)Nc1c2c(nn1-c1cccc(Cl)c1)CSC2	i	-0.2
CNC(=O)N1CCNC(=O)C1(C)C	i	1.2
O=C(NC1CCCCC1)C1CCCN(C(=O)c2ccc(NS(=O)(=O)c3ccc(F)cc3)cc2)C1 (stereo unspecified)	i	-0.38
COc1ccc(C)cc1NS(=O)(=O)c1cc(-c2cc(C(F)(F)F)on2)sc1C	i	0.46
CCn1nc(C)n2cc(S(=O)(=O)NCc3ccc(C)o3)cc2c1=O	i	0.55
COc1cccc(-c2nc(-c3ccc(C)nc3OC)no2)c1	i	-1.11
Cc1cc(C)c2c(n1)SCCN2C(=O)Nc1ccc(C)c(C)c1	i	1.4
O=c1[nH]cnc2c1CN=N2	i	0.64
COc1ccc(OC)c(S(=O)(=O)N2CCC(CN3CCC(C)CC3)CC2)c1	i	-1.3
CC(C)Cc1cc(-c2nnc3sc(-c4cccc(N(C)C)c4)nn23)n[nH]1	i	0.71
O=C(CNS(=O)(=O)c1cc(-c2noc(C3CCC3)n2)cs1)Nc1ccc2c(c1)OCCO2	i	1.51
CC1CCN(S(=O)(=O)c2cn(Cc3noc(-c4ccc(Br)cc4)n3)cn2)CC1	i	0.75
COc1ccc(N2C(=O)CCS2(=O)=O)cc1S(=O)(=O)Nc1ccc(Cl)cc1	i	-0.24
COc1ccc(-n2nnnc2C2CCN(S(=O)(=O)c3c(C)cc(C)cc3C)CC2)cc1	i	0.9
CC(C)S(=O)(=O)c1ccc(N2CCN(c3ccc(Cl)cc3)CC2)nn1	i	0.3
COCC(=O)Nc1ccc(-c2nc3ccccc3s2)c(C)c1	i	-0.15
Additional compounds
SMILES	Choline anaer gr	Choline anaer gr early
CCC(Oc1ccc(F)cc1)C(=O)Nc1onc2c1CCCC2 (stereo unspecified)	i	0.31
COc1ccc(NC(=O)NCCCn2c(-c3ccc(F)cc3)nc3cccnc32)cc1OC	i	0.76
Cn1nnnc1SCCNCc1cccnc1	i	0.53
O=S(=O)(C1CC1)N1CCc2[nH]ncc2C1	i	0.04
CCCNC(=O)Nc1cccc(-c2noc(-c3cccc(Cl)c3)n2)c1	i	0.14
Cn1nc(C(=O)N2CCCC(C(=O)Nc3ccccc3)C2)c2c1CCN(C(=O)CCc1ccccc1)C2 (stereo unspecified)	i	-0.01
CSc1n[nH]c(=O)c2cc(-c3ccco3)nn12	i	-3.09
CCc1cccc(C)c1-n1nnnc1C(C)(C)NC	i	-1.28
Cc1ccccc1CN1C(=O)C(C)CNc2ccccc21 (stereo unspecified)	i	-0.36
CCc1nnc2c(Oc3cccc(NS(=O)(=O)c4ccc(F)c(C)c4)c3)nc3ccccc3n12	i	-1.21
CC(C)CNC(=O)c1ccc2c(=O)n(CC(C)C)c3nn(CC(=O)NC4CCCC4)c(=O)n3c2c1	i	-0.18
COc1ccc(S(N)(=O)=O)cc1-c1nc(C(C)C)no1	i	-0.88

An excerpt; the hit share may differ from the screen's.
